Assay outcomes from PubChem BioAssay.
AF4-AF9 inh: inhibitors of AF4 peptide binding to AF9, primary screen, biochemical, AlphaScreen, biotin-AF4 peptide, FLAG-AF9, single point; Protein AF-9 (Homo sapiens), P42568; inhibition, % at 10 µM; actives 0.47% (n = 350,000); AID 651704, 2012;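 active means every replicate reaching a set inhibition limit, whatever the replicate mean, cut at about 25% in these data; inconclusive means mean inhibition reaches that limit but some replicates miss it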;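 further: 0% = plate neutral control median and 100% = total signal loss; the record names both 10 and 1 µM as test concentration; the first replicate is given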
Target sequence (P42568 whole entry, looked up): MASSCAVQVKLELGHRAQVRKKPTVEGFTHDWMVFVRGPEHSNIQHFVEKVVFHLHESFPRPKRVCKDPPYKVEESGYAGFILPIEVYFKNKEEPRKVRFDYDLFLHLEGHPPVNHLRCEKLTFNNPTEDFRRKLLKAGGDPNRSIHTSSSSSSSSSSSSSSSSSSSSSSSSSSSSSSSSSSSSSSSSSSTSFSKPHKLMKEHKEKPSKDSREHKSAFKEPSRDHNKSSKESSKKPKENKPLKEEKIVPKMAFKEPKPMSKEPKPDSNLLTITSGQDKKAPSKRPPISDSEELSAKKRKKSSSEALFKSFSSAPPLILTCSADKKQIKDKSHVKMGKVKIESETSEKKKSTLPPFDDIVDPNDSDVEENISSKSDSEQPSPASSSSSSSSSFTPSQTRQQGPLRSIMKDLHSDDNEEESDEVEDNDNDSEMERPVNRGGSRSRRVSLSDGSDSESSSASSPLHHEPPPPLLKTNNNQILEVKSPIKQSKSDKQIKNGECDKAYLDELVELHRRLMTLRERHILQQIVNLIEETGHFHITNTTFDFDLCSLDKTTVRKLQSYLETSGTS
UCH37 inh: inhibitors of human UCH37 deubiquitinase, primary screen, biochemical, Ub-AMC cleavage, fluorescence; Ubiquitin carboxyl-terminal hydrolase isozyme L5 (Homo sapiens), Q9Y5K5; purified proteasome/UCH37; inhibition, % (no concentration beside the values); actives 0.33% (n = 330,000); AID 588478, 2011;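 active means mean of two replicates above 20%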;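 further: 0% = compound-free wells with enzyme and 100% = wells lacking proteasome; stock transfer was 100 nL into about 20 µL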
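Test system – human UCH37 enzyme supplied as purified proteasome complex · Incubation – 30 min preincubation with enzyme, 25 min cleavage at room temperature · Detection – AMC fluorescence from Ub-AMC cleavage, excitation 355 nm, emission 460 nm · Benchmarks – no-proteasome wells (full inhibition) and compound-free wells (no inhibition)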
FGF22 binding: binders of human FGF22 protein, primary screen, FGF22 synaptogenesis inhibitor project, biophysical, thermal shift, single point. recombinant FGF22 thermal shift, SYPRO orange fluorescence; percent of sucrose octasulfate shift, DMSO zero. calls only at 9.99 µM. actives 1.5% (n = 340,000). AID 651658, 2012;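 active means melting point raised past a set limit in the mean and every replicate; inconclusive means no clear call; three in four hits are not shown here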
HNF4A DNA FP: change in binding of human HNF4A to DNA, primary screen, biochemical, fluorescence polarization, FITC-DNA | Hepatocyte nuclear factor 4-alpha (Homo sapiens), P41235 | 1 h | activity change, % at 10 µM | actives 0.3% (n = 360,000) | AID 1224865, 2016; in the data active means activity change above about 30%, passing the limit was not always enough;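 further: controls were the assay level and a saturating level of protein; the project sought stronger binding though the title names inhibitors; some compounds called inactive have numbers as strong as hits; positive values seem to mean higher polarization but the record does not say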
Target sequence (P41235 whole entry, looked up): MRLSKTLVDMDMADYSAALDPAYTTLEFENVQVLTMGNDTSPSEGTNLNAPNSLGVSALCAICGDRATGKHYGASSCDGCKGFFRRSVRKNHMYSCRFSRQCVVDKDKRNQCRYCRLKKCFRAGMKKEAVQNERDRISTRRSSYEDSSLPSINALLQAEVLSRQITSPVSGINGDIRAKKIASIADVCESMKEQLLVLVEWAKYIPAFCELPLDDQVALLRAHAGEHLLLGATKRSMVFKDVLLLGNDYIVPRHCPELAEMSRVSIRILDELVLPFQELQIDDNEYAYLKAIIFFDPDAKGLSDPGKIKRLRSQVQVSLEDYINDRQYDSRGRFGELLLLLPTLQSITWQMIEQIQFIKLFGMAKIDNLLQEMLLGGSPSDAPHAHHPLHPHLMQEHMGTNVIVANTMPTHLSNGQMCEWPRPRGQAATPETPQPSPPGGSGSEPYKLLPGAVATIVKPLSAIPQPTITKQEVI
RanGTP-Impb inh: inhibitors of RanGTP-importin-beta interaction, primary screen, biochemical, FRET, CFP-Ran, YFP-importin-beta, homogeneous | inhibition, % (test concentration not listed) | cell-free CFP-Ran/YFP-importin-beta FRET ratio | Ran GTPase (GTP-bound) - importin-beta complex | actives 1.1% (n = 300,000);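 active means most replicates above 15%; inconclusive means exactly half above 15%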;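 further: 0% = DMSO wells and 100% = Ran loaded with GDP instead of GTP; wells of about 40 µL received 100 nL stock; the first replicate is given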
Vif A3G: inhibitors of Vif binding to APOBEC3G peptide, primary screen, biochemical, TR-FRET, GST-Vif 1-94, biotin-A3G peptide, dose response retest (AID 1117319); inhibition, %, or IC50 in µM where a hit was titrated; actives 0.57% (n = 260,000); TR-FRET GST-Vif / biotin-A3G peptide binding; higher % means a stronger effect; test concentration not given here; strong numbers were not always called active;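 active means above the screen mean plus three standard deviations and confirmed in dose response; inconclusive means results disagree or hit not tested in dose response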;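 further: Vif residues 1-94 fused to GST binding biotinylated APOBEC3G peptide 110-148; 0% = full assay without inhibitor and 100% = GST in place of GST-Vif; retest series ran down from 100 µM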
E coli growth: E. coli growth inhibition, primary screen, OD600; Escherichia coli growth, 23 h; stronger effect = lower value; OD600 absorbance (no concentration beside the values); actives 0.21% (n = 330,000); AID 1053175, 2014;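 active means OD600 absorbance below the run mean of sample wells minus 3.6 SD, in any replicate, cut at about 0.56 in these data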;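 further: stock transfer was 300 nL into about 60 µL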
Active calls of the source: *; i = inactive; u = inconclusive; x = not tested or not shown.

item | SMILES | AF4-AF9 inh | UCH37 inh | FGF22 binding | HNF4A DNA FP | RanGTP-Impb inh | Vif A3G | E coli growth
1 | Cc1ccc(S(=O)(=O)N2CCN(C(=O)CC(C)(C)C)CC2)cc1 | -2.8 | 3.9 | i | 1.8 | -3.5 | 24% | 0.72
2 | COc1cc(/C=N/NC(=O)c2cccc(NC(=O)c3ccccc3C)c2)ccc1O | -2.5 | x | i | 0.9 | -2.1 | x | x
3 | COc1cccc(NC(=O)C2CCOC2=O)c1 (stereo not drawn) | -4.3 | 1.5 | i | -2.0 | -2.5 | x | 0.63
4 | O=C(OCCN=C1NS(=O)(=O)c2ccccc21)C1CC(=O)N(c2ccc3ccccc3c2)C1 (stereo not drawn) | x | 0.3 | x | 0.2 | -1.5 | -2% | 0.66
5 | Cc1ccc(SC(=O)COc2ccc(C)c(C)c2)cc1 | x | 3.7 | x | -0.2 | 4.6 | 7% | 0.68
6 | CCNc1nc(SC(C)C(=O)OC)nc(N2CCOCC2)n1 (stereo not drawn) | x | 2.2 | x | -1.3 | 1.4 | 2% | 0.71
7 | CCN(CC)c1ccc(/C=N/N2C(C)CCCC2C)c(O)c1 (stereo not drawn) | 18 | x | i | 3.2 | -1.7 | x | x
8 | N#CCC(=O)N/N=C/c1ccc(SCC(=O)Nc2ccccc2)o1 | 2.0 | x | i | -3.0 | 2.0 | -6% | x
9 | CCN(C(=O)COC(=O)C(Cc1ccccc1)N1C(=O)c2ccccc2C1=O)C1CCS(=O)(=O)C1 (stereo not drawn) | x | -0.3 | x | 2.0 | 2.3 | 5% | 0.73
10 | COc1ccc(/C=C2/C(=O)N(c3cccc(F)c3)N=C2C)c(OC)c1 | -0.8 | 4.1 | i | -6.7 | 3.6 | -7% | 0.66
11 | COc1ccc(-c2cc(C(F)(F)F)nc(N)n2)cc1 | -1.0 | -15 | i | 1.2 | 0.2 | -4% | 0.71
12 | CC(=O)Nc1ccc(C2=NN(c3ccccc3)C(c3ccccc3)C2)cc1 (stereo not drawn) | -3.9 | i | i | -3.9 | -1.1 | 0% | 0.7
13 | CC1(NC(=S)NCCO)CCS(=O)(=O)C1 (stereo not drawn) | x | 3.4 | x | -5.1 | -1.7 | x | 0.68
14 | O=[N+]([O-])c1cc(Cl)cc(/C=N\Nc2ccccn2)c1O | x | x | x | -2.8 | 0.2 | 8% | x
15 | c1ccc(-n2c(SCC3CCCCO3)nnc2-c2cccs2)cc1 (stereo not drawn) | x | 1.4 | x | 6.4 | 0.2 | 14% | 0.66
16 | NC(=O)CN1CCN(c2nc(-c3ccc(F)cc3)cs2)CC1 | x | 5.7 | x | -0.6 | -1.1 | 7% | 0.74
17 | COc1cccc(OCCNC(=O)Nc2cc(F)c(F)cc2Cl)c1 | -2.3 | 0.7 | i | -1.8 | -1.5 | -9% | 0.7
18 | Cc1ccc(C(=O)CSc2nnc(COc3cccc4cccnc34)o2)cc1 | 5.3 | -0.5 | i | -1.2 | -1.7 | u | 0.68
19 | CC1CC(C)(C)NC(=S)N1CCC(=O)N1CCN(c2ccccc2)CC1 (stereo not drawn) | -8.5 | -2.5 | i | 1.0 | 2.6 | x | 0.71
20 | O=c1nc(-c2ccccc2)c(-c2ccccc2)n[nH]1 | -26 | 3.6 | i | 6.8 | -0.3 | -7% | 0.67
21 | CCOC(=O)c1c(S(=O)(=O)Nc2ccc(C)cn2)c(C)n(C)c1C | -2.4 | 4.9 | i | -2.9 | -0.2 | -4% | 0.68
22 | Cc1ccc2[nH]c(=O)c(CN(CC3COCCO3)C(=O)Nc3ccccc3F)cc2c1 (stereo not drawn) | -0.5 | -2.5 | i | -3.2 | 0.5 | 2% | 0.69
23 | O=C(NCCCl)c1ccc(OCc2ccccc2)cc1Cl | 6.1 | 3.1 | i | -2.5 | 5.8 | x | 0.65
24 | COc1ccc(Cl)cc1NC(=O)CN1c2ccccc2CC1C (stereo not drawn) | 2.5 | 4.2 | i | 33* | x | -7% | 0.65
25 | COc1ccc(OCCOCCN2CCc3ccccc3C2)cc1 | x | -0.1 | x | 0.8 | -3.5 | -1% | 0.72

item | SMILES | AF4-AF9 inh | UCH37 inh | FGF22 binding | HNF4A DNA FP | RanGTP-Impb inh | Vif A3G | E coli growth
26 | Oc1ccc(/C=N\Nc2cc(N3CCOCC3)nc(N3CCOCC3)n2)c(O)c1 | 16 | x | i | -2.0 | 4.0 | u | x
27 | Nc1nc(N)c(N=O)c(OCC2CCCCC2)n1 | 2.1 | 2.4 | i | -2.6 | 2.7 | x | 0.7
28 | CCOc1ccc(N(C)S(=O)(=O)c2cc(-c3cc(C)no3)ccc2CC)cc1 | -7.6 | 3.3 | i | -0.3 | -2.2 | x | 0.73
29 | CC(C)(C)n1nnnc1C(c1ccc(C#N)cc1)N1CCCC2(CCCCC2)C1 (stereo not drawn) | x | 1.3 | x | 0.4 | 0.4 | 1% | 0.71
30 | COc1ccc(C)cc1NC(=O)c1nnn(Cc2cccc(C(F)(F)F)c2)c1N | -0.9 | -2.7 | i | -2.2 | -2.2 | -7% | 0.71
31 | COc1ccc(NC(=O)c2ccc3c(c2)S(=O)(=O)c2ccccc2C3=O)cc1 | -0.7 | 0.9 | i | 0.2 | 2.3 | x | 0.71
32 | Cc1cc(OCC(=O)OCC(=O)N(Cc2ccccc2)C(C)(C)C)ccc1Cl | 0.5 | x | i | 3.6 | x | -4% | x
33 | CCOc1ccccc1CNC(=O)Cn1c(=O)oc2ccccc21 | -5.0 | 2.2 | i | 4.9 | 6.3 | 72% | 0.67
34 | Cc1ccc(Nc2ncc3c(=O)[nH][nH]c(=O)c3n2)cc1 | -1.5 | 6.0 | i | -4.7 | x | -5% | 0.64
35 | O=C1[C@@H]2Cc3c([nH]c4ccccc34)C(c3ccccc3)N2C(=O)CN1C1CC1 (stereo partly drawn) | u | x | i | 2.3 | 4.2 | -3% | x
36 | CC(=O)c1ccc2c(c1)N(Cc1ccccc1)C(=O)C(C)S2 (stereo not drawn) | 1.9 | x | i | 2.0 | x | x | x
37 | COc1cccc(C(O)c2nc(/C=C/c3ccc(C(F)(F)F)cc3)cs2)c1 (stereo not drawn) | 0.6 | x | i | -0.9 | x | x | x
38 | CO[C@H](C(=O)N(C)C[C@@H]1OCc2ccccc2-c2c(n(C)c3ccccc23)C(=O)N([C@H](C)CO)C[C@@H]1C)c1ccccc1 | -4.5 | x | i | 3.5 | x | x | x
39 | Cc1ccc(S(=O)(=O)N2[C@@H](c3ccccc3)C(C(=O)O)=CC[C@H]2c2ccc3c(c2)OCO3)cc1 | 3.7 | 0.9 | i | 2.0 | x | x | x
40 | COc1ccc(/C=C(\NC(=O)c2ccccc2)C(=O)N2CCC(C)CC2)cc1 | -8.0 | 0.4 | i | -0.2 | x | -2% | 0.67
41 | O=C(O)CSC1c2ccccc2C(=O)N1c1ccccc1 (stereo not drawn) | x | 3.6 | x | 2.3 | -2.2 | 3% | 0.73
42 | COc1ccc([C@@H]2CC=C(C(=O)O)[C@H](c3cccc(Cl)c3)N2S(=O)(=O)c2ccc(Cl)cc2)cc1 | 0.7 | 5.1 | x | 1.4 | x | x | x
43 | CCOC(=O)c1ccc(NC(=O)NCc2ccccc2)cc1 | -2.3 | 2.4 | i | 2.0 | 1.6 | -1% | 0.63
44 | COc1ccc(S(=O)(=O)N2CCCCCC2)cc1C(=O)N(C)Cc1ccco1 | -11 | 4.8 | x | 6.7 | 1.6 | 7% | 0.65
45 | O=C1NC(=O)C2(COC3(CCCC3)OC2)S1 | x | 2.5 | x | -3.6 | 1.7 | -1% | 0.71
46 | COc1ccccc1OCCOCCOc1ccccc1Cl | -2.1 | 0.2 | i | -0.1 | 0.8 | x | 0.68
47 | c1ccc(CSc2nnnn2-c2ccccc2)cc1 | x | -0.7 | x | 1.5 | 0.8 | 10% | 0.7
48 | CCOc1ccc(NS(=O)(=O)c2cc(NC(=O)c3ccc(C)cc3)ccc2Cl)cc1 | x | 6.7 | x | 1.2 | -0.4 | 26% | 0.69
49 | COC(=O)CCC(=O)Nc1cccc2c(NC(=O)CCC(=O)OC)cccc12 | x | 3.2 | x | 1.3 | 5.6 | 13% | 0.72
50 | Cc1cccc(C(=O)OCC(=O)N2CCc3ccccc3C2)c1O | -4.6 | x | i | 1.0 | x | 2% | x

item | SMILES | AF4-AF9 inh | UCH37 inh | FGF22 binding | HNF4A DNA FP | RanGTP-Impb inh | Vif A3G | E coli growth
51 | CCN(CC(=O)NCc1cccs1)C(=O)c1ccccc1Cl | -0.5 | 1.4 | i | -2.6 | 2.2 | -7% | 0.71
52 | CN(CC(=O)Nc1cccc2ccccc12)C(=O)c1ccc(NC(=O)CC#N)cc1 | 0.0 | 0.8 | i | 4.8 | x | 2% | 0.69
53 | Cc1c(NC(=O)CN2C(=O)c3ccccc3S2(=O)=O)c(=O)n(-c2ccccc2)n1C | x | 0.8 | x | 0.1 | x | -1% | 0.75
54 | Cc1ccc(C(=O)C(C)OC(=O)CCN=C2NS(=O)(=O)c3ccccc32)cc1 (stereo not drawn) | -0.6 | 3.8 | i | -2.9 | 4.7 | 1% | 0.65
55 | CC(=O)Cn1c(=O)c2c(nc3n2CCCN3Cc2ccccc2)n(C)c1=O | 1.7 | 2.7 | i | -1.4 | 1.2 | -2% | 0.71
56 | COc1ccc(Cn2nnnc2C(c2cccs2)N2CCSCC2)cc1 (stereo not drawn) | x | 0.9 | x | -0.6 | 5.1 | 3% | 0.68
57 | C/C(=N\NC(=O)C1CC1)c1ccc(N2CCOCC2)cc1 | -0.9 | x | i | 2.4 | 2.9 | x | x
58 | COc1nc(C#N)nc(N(C)C)n1 | x | 6.3 | x | -0.6 | 0.4 | 0% | 0.67
59 | CCOC(=S)SCC(=O)Nc1nccs1 | -4.0 | 7.4 | i | 2.4 | -2.6 | 2% | 0.65
60 | O=C(C1CC1)N1N=C(c2ccc(F)cc2)CC1(O)C(F)(F)F (stereo not drawn) | -1.3 | 2.2 | i | 5.0 | -3.1 | -2% | 0.63
61 | C=CCOC(=O)C(C#N)c1nc2ccccc2nc1N1CCN(Cc2ccc3c(c2)OCO3)CC1 (stereo not drawn) | x | -0.1 | x | 6.7 | 0.8 | 7% | 0.74
62 | CCOC(=O)[C@]12CCCC=C1N(Cc1ccc3c(c1)OCO3)C(=O)[C@H](CC(=O)NCCc1ccccc1OC)C2 | 5.0 | x | i | 0.2 | x | x | x

Structural class, those above containing an aryl thioether with sulfur outside any ring.
item | SMILES | AF4-AF9 inh | UCH37 inh | FGF22 binding | HNF4A DNA FP | RanGTP-Impb inh | Vif A3G | E coli growth
6 | CCNc1nc(SC(C)C(=O)OC)nc(N2CCOCC2)n1 (stereo not drawn) | x | 2.2 | x | -1.3 | 1.4 | 2% | 0.71
8 | N#CCC(=O)N/N=C/c1ccc(SCC(=O)Nc2ccccc2)o1 | 2.0 | x | i | -3.0 | 2.0 | -6% | x
15 | c1ccc(-n2c(SCC3CCCCO3)nnc2-c2cccs2)cc1 (stereo not drawn) | x | 1.4 | x | 6.4 | 0.2 | 14% | 0.66
18 | Cc1ccc(C(=O)CSc2nnc(COc3cccc4cccnc34)o2)cc1 | 5.3 | -0.5 | i | -1.2 | -1.7 | u | 0.68
47 | c1ccc(CSc2nnnn2-c2ccccc2)cc1 | x | -0.7 | x | 1.5 | 0.8 | 10% | 0.7

An excerpt; count on the stated rates, not on these rows.
